# Cruzain noTriton = cruzain (T. cruzi) inhibition without detergent | actives 2.3% (n = 200,000) | Potency, µM, for the others: max response, negative = inhibition, actives largely listed as inhibitors | P25779 | purified cruzain, Z-FR-AMC fluorescence, no detergent;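 note: plate controls were enzyme without inhibitor for no effect and buffer without enzyme for full effect; nearly all actives have a fitted effect of over 40% in size; top concentration of the series not given in the record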
# Target sequence (P25779 123-467 limits assumed): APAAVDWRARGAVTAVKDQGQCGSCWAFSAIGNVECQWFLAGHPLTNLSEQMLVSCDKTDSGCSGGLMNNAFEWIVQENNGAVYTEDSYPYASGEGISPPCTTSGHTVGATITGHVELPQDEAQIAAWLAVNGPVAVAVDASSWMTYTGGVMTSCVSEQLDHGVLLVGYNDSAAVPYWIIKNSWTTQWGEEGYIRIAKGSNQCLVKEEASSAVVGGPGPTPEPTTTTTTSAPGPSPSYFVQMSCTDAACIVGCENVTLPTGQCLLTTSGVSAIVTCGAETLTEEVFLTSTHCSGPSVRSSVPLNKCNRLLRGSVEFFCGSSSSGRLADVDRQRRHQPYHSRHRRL
#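 Detergent-free condition (0.00005% Triton X-100) in acetate buffer pH 5.5 with DTT. 1.5 nM enzyme and compound were pre-mixed 15 min, then 2 uM Z-FR-AMC substrate added; reaction progress from fluorescence change between first and third reads (60 s).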
# NS1 inh = blocks influenza NS1 protein function; S. cerevisiae slowed by influenza A NS1, growth recovery by OD600; Potency, µM (series often up to 46.1 µM), without a hit: top-dose activity, positive = more growth; actives 0.4% (n = 270,000); active means well fitted rising curve with a large enough effect; inconclusive means small, poorly fitted or top-dose-only effect; inactive means no such curve, though single readings can be large or run the other way; note: nearly all actives have a fitted effect of over 50% in size
#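 Growth recovery, yeast-based: influenza A NS1 expressed in S. cerevisiae causes slow growth, and suppressors are detected by OD600. The parent strain without NS1 is used as positive control.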
# Marburg entry inh = blocks Marburg virus binding to or entry into cells. Marburg virus pseudotyped entry inhibition, cell reporter; control for the full effect not named in the record; about a third of the inactives were read at about 46 µM. Potency, µM (titrated, usually from 37.8 µM), for inactives: at the highest dose activity change, negative = inhibition, actives largely listed as inhibitors. actives 1.8% (n = 300,000); active = well fitted inhibition curve with a large enough effect; inconclusive = small, poorly fitted or top-dose-only effect, or effect the other way; inactive = flat fitted curve, though single readings scatter; tested in HEK293 cells; about a fifth of its hits are not listed in these tables; note: % is set by controls: 0 for no effect and ±100 for the full control effect; luciferase read-out
# SARS PLpro yeast = blocks SARS-CoV papain-like protease in a yeast assay. S. cerevisiae expressing SARS-CoV PLpro, growth rescue; control for the full effect not named in the record. actives 0.19% (n = 330,000). AID 485353. Potency, µM (doses to about 32.9 µM), for inactives: at the top dose activity, positive = growth rescue; active means well fitted rising curve with a large enough effect; inconclusive means small, poorly fitted or top-dose-only effect; inactive means no such curve, though single readings can be large or run the other way; note: 0% is about no effect; nearly all actives have a fitted effect of over 55% in size; growth read by luminescence after 48 h
# Cruzain inh Det = cruzain (T. cruzi) inhibition with detergent; Potency, µM, for the others: max response, negative = inhibition, hits mostly inhibitors; AID 1478; actives 0.43% (n = 200,000); purified cruzain, Z-FR-AMC fluorescence, 0.01% Triton;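 note: plate controls were neutral wells for no effect and buffer without enzyme for full effect; nearly all actives have a fitted effect of over 40% in size; top concentration of the series not given in the record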
#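 Steps: dispense cruzain (1.5 nM final) in acetate buffer pH 5.5 with DTT and 0.01% Triton X-100; pin-transfer compounds; incubate 15 min RT; add Z-FR-AMC (2 uM final); read fluorescence every 30 s, using the 60 s intensity change.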
# StopGo reporter = lowers the luciferase signal of an FMDV 2A StopGo reporter; actives 1.2% (n = 410,000); Potency, µM (series often up to 57.9 µM), without a hit: at the top dose signal change, negative = less light; AID 1159524; human cells with a luciferase reporter of 2A StopGo recoding; control for the full effect not named in the record; active = well fitted falling curve with a large enough effect; inconclusive = small, poorly fitted or top-dose-only effect; inactive = no such curve, though single readings can be large or run the other way; tested in HEK293T cells; note: % is set by controls: 0 for no effect and ±100 for the full control effect; nearly all actives have a fitted effect of over 45% in size; luciferase light after 4 h
# RE007 growth inh = less growth of the S. pombe RE007 Vpr strain; S. pombe RE007 Vpr strain, BacTiter-Glo ATP luminescence, 24 h; control for the full effect not named in the record; Potency, µM (doses to about 92.2 µM), inactives show top-dose activity change, negative = less growth; actives 0.21% (n = 360,000); AID 651644; active = well fitted falling curve with a large enough effect; inconclusive = small, poorly fitted or top-dose-only effect; inactive = no such curve, though single readings can be large or run the other way;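 note: % is set by controls: 0 for no effect and ±100 for the full control effect; nearly all actives have a fitted effect of over 50% in size; the assay follows cell death caused by Vpr and the record does not say whether a fall means rescue or toxicity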
#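 Fission yeast strain RE007, carrying one chromosomally integrated HIV-1 vpr copy, was seeded at OD 0.01 in PMG+AL medium with 23 nL pinned compound. After 24 h at 30 °C and 99% humidity, viability was read by BacTiter-Glo luminescence.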
# LASV entry inh = inhibitors of Lassa virus binding or cell entry; Potency, µM (titrated, usually from 37.9 µM), without a hit: top-dose activity change, negative = inhibition, hits mostly inhibitors; Lassa virus pseudotype entry inhibition, cell reporter; control for the full effect not named in the record; actives 1.2% (n = 300,000); active means well fitted inhibition curve with a large enough effect; inconclusive means small, poorly fitted or top-dose-only effect, or effect the other way; inactive means flat fitted curve, though single readings scatter; tested in HEK293 cells; note: % is set by controls: 0 for no effect and ±100 for the full control effect; nearly all actives have a fitted effect of over 50% in size; luciferase read-out
# The depositor's hits bear a star; ? = inconclusive; . = not tested or not shown; & = joins results of further samples; [ ] = another dose, or the depositor's remark. Unless noted, calls come from the whole dose curve; as a rule, active = well fitted curve in the direction sought with a large enough effect; inconclusive = small, poorly fitted or top-dose-only effect, or another doubt; inactive = no such curve, though single readings can be large; an effect the other way counts as inactive or inconclusive. Potency is the fitted concentration of half-maximal effect.
SMILES,Cruzain noTriton,NS1 inh,Marburg entry inh,SARS PLpro yeast,Cruzain inh Det,StopGo reporter,RE007 growth inh,LASV entry inh
COc1ccc(C)cc1NS(=O)(=O)c1c(C)nc2sc(C)cn2c1=O,?,.,.,.,-12%,16%,.,1%[46.1 µM]
O=[N+]([O-])c1cc2c(c(CSc3ncccn3)c1)OCOC2,.,.,3%[46.1 µM],0%,.,43%[activator],26%,.
c1ccc2c(c1)ncn2CCn1cnc2ccccc21,-4%,2%,2%,-6%,1.6%,-5%,0%,2%
C/C(=N/NC(=O)c1nnn(-c2nonc2N)c1-c1ccccc1)c1ccc2c(c1)OCO2,.,-1%,-4%[46.1 µM],-1%,.,-18%,2%,.
CC[n+]1c(/C=C/N(C)c2ccccc2)sc2ccc(Cl)cc21,-16%,-38%,2.9µM*,1%,-9.9%,.,-22%,?
COc1cccc(NC(=O)c2cc(=O)c3ccccc3o2)c1,.,-27%,.,-8%,.,-1%,-7%,.
COc1ccc(CCN(C)C(=O)c2cc(-c3ccccc3)nc3ccccc23)cc1OC,.,-45%,-16%,1%,.,4%,4%,-4%
O=C(CC12CC3CC(CC(C3)C1)C2)Nc1ccc(C(=O)O)cc1,.,-96%,0%[46.1 µM],0%,.,14%,-6%,-1%[46.1 µM]
O=c1n(-c2ccccc2)c(=O)n(Cc2ccccn2)n1Cc1ccccn1,-14%,4%,20%,-1%,0.5%,-14%,7%,?
Cc1ccc(C)c(OCCNc2ncccc2[N+](=O)[O-])c1,.,-43%,.,7%,.,10%,-3%,.
CCn1c(=O)cc(SCC(=O)NCc2ccccn2)c2ccccc21,0%,0%,5%,-1%,2.1%,?,-11%,2%
CCN(CCO)Cc1csc2c(Br)cccc12,-4%,0%,?,0%,-12%,0%,-3%,25%
O=C1Cc2c([nH]c3ccc(Br)cc23)-c2ccccc2N1,?,1%,?,.,-2.1%&0.4%,22%&39%,0%,?
CCCOc1ccc(N2C(=O)CC(N(C(=O)c3ccco3)c3ccc(OCCC)cc3)C2=O)cc1 (centres undefined),-13%,-3%,-7%,14%,1.3%,19%,3%,2%
Cc1nn(-c2ccccc2)c(C)c1/C=N/n1c(-c2ccc(Cl)cc2)n[nH]c1=S,-1%,13%,-21%,16%,0.3%,?,12%,?
COc1ccc(OC)c(-c2cc(C(=O)N3CCN(c4ccccc4)CC3)no2)c1,-1%,-58%,2%,1%,-2.9%,-3%,-7%,.
CSc1ccccc1C(=O)N1CCCC(CNC(=O)c2ccc(F)cc2)C1 (centres undefined),.,4%,.,8%,.,-7%,8%,.
Cc1cccc(NC(=O)CSCC(=O)NCc2cccc(C(F)(F)F)c2)c1,.,12%,-8%,1%,.,-22%,?,-6%
COC(=O)c1c(NC(=O)CCCOc2ccccc2C)sc2c1CCC2,-10%,.,.,.,-6.4%,-13%,.,21%[46.1 µM]
Cc1csc(SCC(=O)O)n1,4%,1%,1%,-2%,5.9%,-20%,18%,11%
N#Cc1c(N)nc(-c2ccccc2)nc1-c1ccccc1,-27%,0%,0%,-1%,1.1%,.,6%,-27%
Oc1ccc2ccccc2c1N=Nc1ccccn1,6%,-181%,?,-22%,-6.4%,?,35µM*,8.9µM*
CCOC(=O)c1nccnc1C(=O)Nc1cccc(C(F)(F)F)c1,.,.,?,-4%,.,8%,0%,-1%
CCOc1ccc(-n2c(SC(C)C(=O)OC)nc3c([nH]c4ccccc43)c2=O)cc1 (centres undefined),23%,.,.,.,-4.6%,-28%,.,?
Cc1cc(C)cc(NC(=S)N2CCN(Cc3ccccc3)CC2)c1,.,-6%,-11%[46.1 µM],1%,.,-10%,16%,-18%

# The list continues:
SMILES,Cruzain noTriton,NS1 inh,Marburg entry inh,SARS PLpro yeast,Cruzain inh Det,StopGo reporter,RE007 growth inh,LASV entry inh
Cc1cc(NC(=O)CSc2nnnn2Cc2ccccc2)no1,-12%,3%,11%,12%,0.0%,8%,-24%,8%
CCN(CC)C(=O)N1CCN(S(=O)(=O)c2ccccc2)CC1,.,3%,.,0%,.,-15%,9%,.
CCCSc1nc(N2CCCC2)c2c(c1C#N)CC(C)(C)OC2,2%,5%,-3%&-3%[46.1 µM],0%,-5.2%,-10%,-21%,-11%
COc1ccc(-c2cn3c(n2)sc2cc(C(=O)Nc4ccc(C)cc4C)ccc23)cc1,7%,.,.,.,0.4%,-13%,.,-15%[46.1 µM]
Nc1nc(SCc2ccccc2[N+](=O)[O-])c2ncn(Cc3ccccc3)c2n1,.,.,?,.,.,-21%,7%,-13%[46.1 µM]
C/C(=N\Nc1ccccn1)c1ccc(S(=O)(=O)NCc2ccco2)cc1,-18%,-21%,6%,8%,-9.6%,24%,14%,?
COc1ccccc1N1CCN(C(=O)CSc2nc3ccccc3nc2Cc2ccccc2)CC1,22%,.,.,.,-1.7%,?,.,-1%[46.1 µM]
O=C(CSc1nnc(-c2c[nH]c3ccccc23)o1)N1c2ccccc2CCc2ccccc21,?,4µM*,?,0%,1.3%,.,-6%,?
CCS(=O)(=O)C1=NSC2=NC(=O)/C(=C\c3ccc(OC(=O)c4ccco4)cc3)C(=N)N21,.,0%,19%[46.1 µM],2%,.,22%,-11%,-3%[46.1 µM]
COc1cc(C(=O)Nc2ccc(S(=O)(=O)Nc3onc(C)c3C)cc2)cc(OC)c1OC,-2%,-49%,?,12%,-2.4%,-9%,0%,-2%
CCOc1ccc(-c2[nH]nc3c2C(c2ccc4c(c2)OCO4)C(C#N)=C(N)O3)cc1OC (centres undefined),0%,-16%,?,4%,-13%,-10%,18%,?
O=C(NC(=O)C(F)(F)F)Nc1ccc(S(=O)(=O)Nc2nccs2)cc1,.,-5%,.,2%,.,3%,3%,.
Cc1cc(C)nc(NC(=O)CSc2nc3cc(Cl)ccc3s2)n1,6%,-9%,?,-2%,-3.4%,20%,1%,8%
COc1ccc(-n2nc3c(N4CCC(C(=O)NCc5ccccc5C)CC4)nnc(C)c3c2C)cc1,5%,-2%,?,3%&3%,-15%,-11%&8%,7%,?
O=CNNC(=O)c1cccc([N+](=O)[O-])c1,-17%,1%,4%,22%,3.6%,-12%,4%,-2%
CC(=O)Nc1ccc(-c2nnn(CC(=O)c3ccccc3)n2)cc1Cl,2%,-3%,21%,-4%,7.3%,12%,-7%,15%
COc1cccc(-n2c(SCC(=O)N3CCOCC3)nnc2-c2c[nH]c3ccccc23)c1,18%,-1%,.,10%,0.8%,7%,18%,.
Oc1cc(CNC2CCCCC2)c(O)cc1CNC1CCCCC1,.,.,-4%[46.1 µM],.,.,4%,-15%,12%[46.1 µM]
CN(C)c1ccc(NC(=O)Cn2cc3c(n2)CCCC3)cc1,-19%,10µM*,.,0%,-3.2%,35%[activator],1%,.
Cc1csc(NC(=O)CSc2nc3[nH]ncc3c(=O)[nH]2)n1,.,4%,11%,1%,.,-13%,4%,-5%
COCCn1cnc2c1c(=O)n(Cc1ccc(Br)cc1)c(=O)n2Cc1ccccc1,.,13%,-16%[46.1 µM],-8%,.,?,-6%,-20%
O=C(NNC(=O)c1cc2cc(OC(F)(F)F)ccc2[nH]1)c1ccc(Cl)cc1,.,-1%,-7%[46.1 µM],0%,.,-2%,0%,-13%
Cc1ccc(-n2nc3c(N4CCC(C(=O)NCc5cccc(F)c5)CC4)nnc(C)c3c2C)cc1,.,8%,.,-2%,.,?,12%,.
CCC(C)(C)NC(=O)C(c1ccccn1)N(C(=O)c1csnn1)c1ccccc1 (centres undefined),.,4%,.,0%,.,-9%,-5%,.
O=C(CCCN1C(=O)S/C(=C/C=C/c2ccccc2)C1=O)Nc1ccc(C(=O)O)cc1,.,3%,.,2%,.,35%[activator],14%,.

# Next section:
SMILES,Cruzain noTriton,NS1 inh,Marburg entry inh,SARS PLpro yeast,Cruzain inh Det,StopGo reporter,RE007 growth inh,LASV entry inh
Fc1ccc(OCc2nc(-c3ccc(Br)o3)no2)c(F)c1,2%,-31%,.,-10%,-3.2%,56%[activator],1%,.
NC(CSC1(c2cccc3ccccc23)c2ccccc2-c2ccccc21)C(=O)O (centres undefined),.,.,-13%,.,.,0%,3%,2%
Cc1ccccc1N(C(=O)Cc1ccsc1)C(C(=O)NC1CCCCC1)c1ccc(F)cc1 (centres undefined),?,0%,?,12%,4.6%,.,-10%,7%
Cc1ccccc1CNC(=O)Cn1ccc2cc(S(=O)(=O)N3CCCCCC3)ccc21,.,12%,.,4%,.,-17%,11%,.
Cc1cccc(NC(=O)c2snc3c(=O)[nH]cnc23)c1,-9%,-4%,0%,-12%,-2.8%,.,.,.
COc1ccccc1N1CCN(C2CCN(C(=O)c3cc(OC)c(OC)c(OC)c3)CC2)CC1,-2%,-3%,1%&1%,-1%,6.4%,-11%,9%,-4%
COc1ccc(S(=O)(=O)NNC(=O)c2cc3cc4ccccc4nc3s2)cc1,-8%,12%,12%,2%,-6.1%,14%,21%,-2%
O=C(C[n+]1ccc(Cc2ccccc2)cc1)Nc1ccc([N+](=O)[O-])cc1Cl,.,0%,0%,-2%,.,-6%,-2%,-2%
CCC(=O)N1CCc2cc(S(=O)(=O)NC(C(=O)NCc3ccc(F)cc3)C(C)C)ccc21 (centres undefined),-2%,11%,13%,-4%,0.4%,-9%,-15%,8%
Nc1ccc(NC(=O)NC2CCCCC2)cc1,.,0%,-20%[46.1 µM],12%,.,19%,-3%,2%
CC(C)c1ccc(NC(=O)CN2C=NS(=O)(=O)c3ccccc32)cc1,19%,.,.,.,4.1%,-10%,.,-4%[46.1 µM]
O=C(c1ccc(F)cc1)n1nc(-c2ccccc2)nc1NCc1ccco1,1%,.,?,.,-7.0%,21%,.,6%[46.1 µM]
Cc1cccc(OCC(=O)Nc2c3c(nn2C(C)(C)C)CS(=O)(=O)C3)c1,.,0%,-1%[46.1 µM],-2%,.,-4%,1%,-17%[46.1 µM]
N#Cc1nc(COc2ccccc2)oc1N1CCOCC1,4%,1%,-3%,5%,-1.3%,-2%,7%,21%
COc1cc(OC)c(NC(=O)C2=C(C)C(=O)OC23CCCCC3)cc1Cl,17%,.,1%[46.1 µM],.,-5.4%,-9%,.,-4%[46.1 µM]
